# Screens deposited in PubChem by National Center for Advancing Translational Sciences (NCATS).
# GLA inh pH 4.5: qHTS Assay for Inhibitors of Human alpha-Galactosidase at pH 4.5; Alpha-galactosidase A (Homo sapiens), P06280; purified enzyme, 4-MU-alpha-Gal fluorescence, pH 4.5; activity change, negative = inhibition, % at 105 µM; 230,000 tested, under 10 active; AID 1467, 2008; inconclusive = small, poorly fitted or top-dose-only inhibition, or a rising curve; inactive = flat fitted curve, though single readings scatter; no compound was filed as active;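 also: 0% = full activity with enzyme and -100% = basal without enzyme; dose as in the result columns while the protocol names 77 µM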
# Target sequence (P06280 whole entry, looked up): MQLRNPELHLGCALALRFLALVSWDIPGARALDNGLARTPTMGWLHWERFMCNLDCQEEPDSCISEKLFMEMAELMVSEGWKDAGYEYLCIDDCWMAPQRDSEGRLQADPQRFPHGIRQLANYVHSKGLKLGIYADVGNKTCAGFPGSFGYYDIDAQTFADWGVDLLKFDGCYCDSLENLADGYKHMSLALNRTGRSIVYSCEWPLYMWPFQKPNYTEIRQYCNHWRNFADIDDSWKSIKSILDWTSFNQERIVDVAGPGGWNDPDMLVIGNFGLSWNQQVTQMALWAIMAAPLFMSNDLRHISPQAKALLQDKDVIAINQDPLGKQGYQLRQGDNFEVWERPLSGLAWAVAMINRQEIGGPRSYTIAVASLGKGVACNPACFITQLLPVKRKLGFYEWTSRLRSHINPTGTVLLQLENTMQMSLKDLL
# Rango complex inh: qHTS Assay for Inhibitors of Rango (Ran-regulated importin-beta cargo) - Importin beta complex formation | Importin subunit beta-1 (Homo sapiens), Q14974 | Rango CFP/YFP FRET sensor + importin beta, 45 min | Potency, µM (top dose mostly 92.2 µM), inactives show at the top dose inhibition of complex formation | actives 0.031% (n = 340,000); active = rising FRET ratio curve, often small or poorly fitted; inconclusive = mostly compound fluorescence or quenching in the first reads; inactive = flat curves in all reads;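 also: potency is read from the fitted curve at half-maximal effect; 0% = DMSO wells and 100% = buffer wells lacking importin beta; nearly all actives have a fitted effect of over 15% in size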
#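 FRET biosensor (snurportin 1 IBB flanked by EYFP and cerulean), 50 nM, with compound 5 min, then 0.125 microM importin beta in PBS, 1 mM DTT, 0.02% Tween-20, 0.1% BSA. CFP/YFP ratio read after 45 min at room temperature; pre-read flags interference.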
# Rango release inh: qHTS Assay for Inhibitors of RanGTP induced Rango (Ran-regulated importin-beta cargo) - Importin beta complex dissociation; Potency, µM (doses to about 46.1 µM), for the others: at the top dose activity change, negative = inhibition; Biochemical FRET Rango-importin beta, RanGTP-induced dissociation; actives 0.071% (n = 340,000); Snurportin-1 (Homo sapiens) + GTP-binding nuclear protein Ran (Homo sapiens) + Importin …; active means falling FRET ratio curve, often poorly fitted, with flat reads before Ran was added; inconclusive means other falling curves, or compound fluorescence or quenching; inactive means flat or rising ratio curve;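 also: potency is read from the fitted curve at half-maximal effect; % of control where 0% means no effect; nearly all actives have a fitted effect of over 45% in size; -100% = wells without RanGTP and RCC1; the record marks most hits as doubtful in a second field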
#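 Compounds preincubate 5 min with complex of recombinant Rango and importin beta in PBS with 1 mM DTT. Ran (0.6 uM) loaded with 2 mM GTP plus 0.2 uM RCC1 starts dissociation; FRET is recorded 45 min later.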
# miR-21 reporter: qHTS Assay for Modulators of miRNAs and/orActivators of miR-21; 340,000 tested, under 10 active; HeLa miR-21 FLuc reporter, luciferase, 48 h; Potency, µM (highest dose often 38.3 µM), inactives show top-dose reporter change, positive = more light; active = well fitted rising curve with a large enough effect; inconclusive = small, poorly fitted or top-dose-only effect; inactive = no such curve, though single readings can be large or run the other way;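 also: % of control where 0% means no effect; miR-21 action dims this reporter so a rising signal means less miR-21 action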
#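 Using DMEM plus 10% FBS, HeLa miR-21-FLuc cells are incubated with test compounds (final up to about 40uM) for 48 hours; firefly luciferase signal is then imaged following reagent-mediated lysis.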
# Starred values were filed as active, the others as inactive; ? = inconclusive; . = not tested or not shown; & = joins results of further samples. This is a subset; count on the stated rates, not on these rows.
# Every second line gives: GLA inh pH 4.5 | Rango complex inh | Rango release inh | miR-21 reporter
- CSCCC(NC(=O)COc1ccccc1)C(=O)OC(C)C(=O)Nc1ccccc1C (stereo not given)
 : . | 6.1% | 17.7% | .
- CCOC(=O)C1Oc2ccccc2C(c2ccc(F)cc2)=C1C(=O)OC (stereo not given)
 : -29.7 | -1.7% | 25.8% | .
- CCOc1ccc(S(=O)(=O)NCC2CCCO2)cc1 (stereo not given)
 : 4.0 | -3.3% | 1.1% | 0.4%
- O=c1nc2n(CCO)c3ccccc3cc-2c(=O)[nH]1
 : . | ? | ? | .
- CCC(C)NC(=O)CC(NS(=O)(=O)c1ccc(C)cc1)c1ccc(OC)cc1 (stereo not given)
 : 0.6 | 1.7% | 4.0% | -2.3%
- NC(=O)c1ccc(NC(=O)COC(=O)CCCOc2ccccc2)cc1
 : . | -1.5% | -0.2% | .
- CCn1ccc(C(=O)NC2=C(C#N)CCC2)n1
 : 8.5 | 3.1% | -3.7% | -11.5%
- O=C(OCc1cc(=O)n2c(n1)sc1ccccc12)c1cccc(O)c1
 : 4.5 | -1.5% | 0.4% | -53.6%
- CCC(NC(=O)c1ccccc1NC(=O)c1ccccc1)C(=O)O (stereo not given)
 : -2.3 | 0.6% | -2.3% | -0.1%
- CC(C)(C)c1cc(NS(=O)(=O)c2ccc3c(c2)OCCO3)on1
 : -2.0 | 1.0% | 2.7% | -4.1%
- COc1ccc(NS(=O)(=O)c2ccc(C)c(NC(=O)NC3CCCCC3)c2)cc1
 : 2.7 | -1.2% | 7.4% | 0.2%
- CC1=CC(C)(C)N2C(=O)C3(NCCc4c3[nH]c3ccccc43)c3cccc1c32 (stereo not given)
 : 0.7 | -0.1% | 11.0% | 3.2%
- CC(=O)Nc1cccc(C(=O)NC2CCCc3c2cnn3-c2cc(C)cc(C)c2)c1 (stereo not given)
 : . | 0.7% | -7.2% | -14.0%
- COc1ccccc1NC(=O)Cn1c(=O)oc2ccccc21
 : -3.8 | 1.5% | -4.3% | -2.6%
- CCCSc1cc(N)cc([N+](=O)[O-])c1
 : -7.4 | 1.0% | 8.2% | -14.1%
- Cc1ccc(N=Nc2ccc(N)cc2C)c(S(N)(=O)=O)c1
 : -15.7 | 0.3% | 40.5% | -56.9%
- Cc1ccc(-c2csc(NC(=O)C3=COCCO3)n2)cc1
 : 3.4 | 3.7% | -0.9% | -54.1%
- CC(=NCCc1ccccc1)C1=C(O)CCC1=O
 : -7.5 | 2.8% | 8.1% | -1.1%
- CCOC(=O)c1c(NC(=O)C2CCCO2)sc(C(N)=O)c1C (stereo not given)
 : 3.8 | -0.1% | -7.9% | 5.6%
- COc1cc(NC(=O)CN2C(=O)NC(c3ccccc3)(c3ccccc3)C2=O)c(C)cc1[N+](=O)[O-]
 : -10.4 | 1.2% | 19.0% | 3.4%
- COc1ccccc1CN1CC(C(=O)NCCN2CCNC2=O)CCC1=O (stereo not given)
 : . | 1.0% | -15.0% | 1.6%
- O=C(O)c1cccc(S(=O)(=O)N2CCc3ccccc3C2)c1
 : . | -0.7% | -7.0% | -4.3%
- Cc1[nH]c2ccccc2c1C1C(c2ccccc2)=NN=C(C(C)C)N1O (stereo not given)
 : -7.2 | ? | 8.3% | -2.4%
- CC1(C)Cc2c(C#N)c(SCc3ccccc3)nc(N3CCOCC3)c2CO1
 : -0.9 | -0.5% | -0.5% | 0.8%
- CC(C)N(C)Cc1nnnn1CC(=O)N(C)Cc1cccc(Cl)c1
 : . | 0.4% | 13.5% | 0.0%
- CC(=O)c1cccc(NC(=O)N2C3CCC2CC(O)(c2cccnc2)C3)c1 (stereo not given)
 : -2.1 | ? | -20.7% | -3.2%
- CCOC(=O)c1c(N)sc(C(=O)OCCOC)c1C
 : 7.8 | 0.0% | 0.3% | -61.9%
- COc1ccc2c(CCNC(=O)CN3C(=O)c4ccccc4C3=O)c[nH]c2c1
 : -9.6 | 4.0% | 7.2% | 6.0%
- CCOC(=O)c1cnc2c(OC)cccc2c1N1CCN(c2ccccc2OC)CC1
 : -14.7 | 4.0% | 13.6% | 8.1%
- CCOC(=O)N1CCC(NC(=O)c2cc(S(=O)(=O)NCCc3ccccc3)ccc2F)CC1
 : 1.9 | -2.7% | 22.1% | 3.7%

# Reprinted at random: 5 entries already listed, in no set order.
# Every second line gives: GLA inh pH 4.5 | Rango complex inh | Rango release inh | miR-21 reporter
- O=c1nc2n(CCO)c3ccccc3cc-2c(=O)[nH]1
 : . | ? | ? | .
- CCCSc1cc(N)cc([N+](=O)[O-])c1
 : -7.4 | 1.0% | 8.2% | -14.1%
- CC1(C)Cc2c(C#N)c(SCc3ccccc3)nc(N3CCOCC3)c2CO1
 : -0.9 | -0.5% | -0.5% | 0.8%
- CCOC(=O)c1c(N)sc(C(=O)OCCOC)c1C
 : 7.8 | 0.0% | 0.3% | -61.9%
- COc1ccccc1NC(=O)Cn1c(=O)oc2ccccc21
 : -3.8 | 1.5% | -4.3% | -2.6%

# (more compounds)
# Every second line gives: GLA inh pH 4.5 | Rango complex inh | Rango release inh | miR-21 reporter
- COc1cc(NC(=O)Cn2nc(C(F)(F)F)c(Br)c2C)cc([N+](=O)[O-])c1
 : -0.8 | -2.4% | 1.0% | ?
- COc1ccc(-c2cc(C(=O)NC3CCCC3)c3ccccc3n2)cc1OC
 : . | ? | 9.1% | .
- Cc1cc(C(=O)Nc2ccc(N3CCOCC3)c3nonc23)ccc1[N+](=O)[O-]
 : . | 3.2% | 4.4% | -22.6%
- O=C(Nc1ccc([N+](=O)[O-])cc1Br)c1cc2ccccc2nc1Cl
 : 3.3 | -1.3% | 0.5% | 0.2%
- Cc1cc(Cl)c(S(=O)(=O)Nc2cccc(O)c2)cc1OCC(N)=O
 : -3.4 | -0.1% | 13.2% | 0.7%
- CCn1c(=O)c(C(=O)NCCCO)c(O)c2ccccc21
 : 5.5 | 3.6% | 1.9% | -7.1%
- CCCN(Cc1nnc(-c2ccccc2Cl)o1)C(=O)c1cc2ccccc2o1
 : . | -3.6% | 12.0% | .
- O=C(CCc1ccccc1)Nc1cccnc1Cl
 : 3.2 | -0.6% | -21.9% | -51.0%
- CCS(=O)c1ccccc1C(=O)OCC(=O)Nc1cccc(S(=O)(=O)N2CCCCC2)c1 (stereo not given)
 : . | -3.3% | ? | .
- CC1(C)CC(O)CC(C)(C)N1CC(O)COCc1ccccc1 (stereo not given)
 : . | -3.5% | 18.3% | 2.0%
- O=C(CSc1nc2ccccc2c(=O)n1Cc1ccco1)N1CCN(c2ccccc2)CC1
 : -6.1 | 1.8% | -7.8% | -1.2%
- CN(C)/C=N/c1ncn(-c2ncc(C(F)(F)F)cc2Cl)n1
 : 3.9 | -2.5% | 6.6% | -49.9%
- Nc1nc2ccc(Cc3ccncc3)cc2s1
 : . | -0.9% | -9.3% | -44.4%
- Cc1ccc(C)c(N2CCN(C(=O)c3nn(C)c4c3CS(=O)(=O)c3ccccc3-4)CC2)c1
 : . | 2.8% | 7.2% | 15.6%&1.4%
- O=C(Cc1ccccc1)Nc1nnc(-c2ccco2)s1
 : 2.0 | ? | -8.4% | -31.9%
- COc1ccc(NC(=S)NCC2CCN(c3ccc(OC)cc3)C2)cc1 (stereo not given)
 : 4.8 | 1.5% | 2.5% | 0.4%
- COc1ccc(S(=O)(=O)N2CCOCC2)cc1NC(=O)c1ccccc1-c1ccc(C(F)(F)F)cc1
 : 6.0 | -2.1% | 0.8% | -4.5%
- Cc1cc(N/N=C/c2ccccc2)nc(N)n1
 : -2.7 | 5.2% | -10.5% | -51.1%
- CCOC(=O)c1c(C)[nH]c(-c2csc(C)n2)c1C
 : 10.3 | -2.5% | -5.5% | -45.7%
- O=C(CNC(=S)N(Cc1ccccc1)Cc1ccccc1F)NCCc1ccccc1
 : -0.9 | 4.0% | 1.0% | 16.4%
- CN1CCc2c(sc3nc(NN)n(Cc4ccccc4)c(=O)c23)C1
 : -7.8 | ? | ? | -5.3%
- CCc1ccc2c(c1)C(c1ccc(N3CCOCC3)cc1)=NNC(c1ccncc1)=N2
 : -3.1 | -1.1% | -1.8% | 0.9%
- O=C(Nc1cccc([N+](=O)[O-])c1)N1CCCc2ccccc21
 : . | -4.0% | -2.8% | -49.1%
- COc1ccc(Cc2nnc(SCC(=O)c3c(N)n(C4CC4)c(=O)[nH]c3=O)o2)cc1
 : . | 2.1% | -11.7% | .
- O=C(NCC1CCCN1S(=O)(=O)c1cccs1)C(=O)Nc1ccccc1Cl (stereo not given)
 : . | -4.7% | -3.7% | .
- O=C(CSc1cn(CC(=O)N2CCCCCC2)c2ccccc12)NCC1CCCO1 (stereo not given)
 : -5.9 | 0.8% | 8.5% | 3.3%
- CCC(C)NC(=O)Cn1cc(S(=O)(=O)N2CCCC2)c(S(=O)(=O)N2CCCC2)c1 (stereo not given)
 : . | 0.5% | 9.0% | -4.0%
- CCOc1ccc(CCN2C(=O)C(=O)N([C@@H](CC(C)C)CN3CCC[C@@H]3CN3C(=O)C(=O)NC[C@@H]3Cc3ccccc3)C[C@@H]2Cc2ccc(O)cc2)cc1
 : . | -2.1% | -8.8% | .
- Cc1onc(-c2c(F)cccc2Cl)c1C(=O)N1CCOC12CCCCC2
 : 2.2 | -2.2% | 0.7% | -1.2%
- O=C(CSc1nnc(CNC(=O)c2ccccc2F)o1)Nc1ccc2c(c1)OCO2
 : -2.5 | 1.2% | -9.8% | 6.6%
- CCOC(=O)c1oc2cc(O)ccc2c(=O)c1-c1csc(C)n1
 : 3.1 | 0.5% | 4.0% | -2.6%
- NC(=O)c1cccc(-c2cccc(OC(=O)NC3CCCCC3)c2)c1
 : . | -2.3% | -10.8% | -16.6%
- O=[N+]([O-])c1cc(C(F)(F)F)cc([N+](=O)[O-])c1NCCCN1CCOCC1
 : 5.8 | -0.5% | 0.5% | 1.3%
- COc1ccc2c(c1OC)C(=O)N1N=C(c3ccc(F)cc3)CC21 (stereo not given)
 : -1.1 | 0.6% | 7.1% | -28.9%
- CCOC(=O)c1c(NC(=O)C(C)Sc2cccc[n+]2[O-])sc2c1CCN(Cc1ccccc1)C2 (stereo not given)
 : 8.3 | ? | ? | 4.1%
- CCCCN1CC(COCc2ccccc2)Oc2cccc(Oc3ccc(C(C)C)cc3)c2S1(=O)=O (stereo not given)
 : . | 0.4% | -8.6% | .
- Cn1ncc(Br)c1C(=O)N/N=C/c1cccc(OC2CSC2)c1
 : 5.3 | 2.5% | 13.3% | -1.1%
- CCS(=O)(=O)c1ccc(S(=O)(=O)CC)s1
 : -7.2 | -3.3% | -0.2% | -7.4%
- O=C(O)C1CCCN(S(=O)(=O)c2ccc(F)cc2)C1 (stereo not given)
 : 11.9 | 1.1% | 0.7% | -2.2%
- COc1ccc(N2C(=O)CC(NCc3ccncc3)C2=O)cc1 (stereo not given)
 : 1.1 | ? | 10.5% | -10.6%
- COC(=O)CN(c1ccc2c(c1)OCO2)S(=O)(=O)c1c(C)[nH]c(=O)[nH]c1=O
 : . | ? | 9.2% | -0.8%
- COc1cccc(-c2nn3c(-c4ccco4)nnc3s2)c1
 : -5.2 | -0.2% | 9.8% | -11.6%

# Of the compounds above, these contain a COOH group:
# Every second line gives: GLA inh pH 4.5 | Rango complex inh | Rango release inh | miR-21 reporter
- CCC(NC(=O)c1ccccc1NC(=O)c1ccccc1)C(=O)O (stereo not given)
 : -2.3 | 0.6% | -2.3% | -0.1%
- O=C(O)c1cccc(S(=O)(=O)N2CCc3ccccc3C2)c1
 : . | -0.7% | -7.0% | -4.3%
- O=C(O)C1CCCN(S(=O)(=O)c2ccc(F)cc2)C1 (stereo not given)
 : 11.9 | 1.1% | 0.7% | -2.2%
